Compound activity deposited in PubChem BioAssay by several laboratories.
HNF4A DNA FP – change in binding of human HNF4 alpha to DNA | HNF4a-FITC DNA binding, fluorescence polarization, 1 h | AID 1224865 | 360,000 compounds, 0.3% hits | activity change, % at 10 µM; in the data active = activity change above about 30%, passing the limit was not always enough;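 note: controls were the assay level and a saturating level of protein; the project sought stronger binding though the title names inhibitors; some compounds called inactive have numbers as strong as hits; positive values seem to mean higher polarization but the record does not say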
Target sequence (P41235 whole entry, looked up): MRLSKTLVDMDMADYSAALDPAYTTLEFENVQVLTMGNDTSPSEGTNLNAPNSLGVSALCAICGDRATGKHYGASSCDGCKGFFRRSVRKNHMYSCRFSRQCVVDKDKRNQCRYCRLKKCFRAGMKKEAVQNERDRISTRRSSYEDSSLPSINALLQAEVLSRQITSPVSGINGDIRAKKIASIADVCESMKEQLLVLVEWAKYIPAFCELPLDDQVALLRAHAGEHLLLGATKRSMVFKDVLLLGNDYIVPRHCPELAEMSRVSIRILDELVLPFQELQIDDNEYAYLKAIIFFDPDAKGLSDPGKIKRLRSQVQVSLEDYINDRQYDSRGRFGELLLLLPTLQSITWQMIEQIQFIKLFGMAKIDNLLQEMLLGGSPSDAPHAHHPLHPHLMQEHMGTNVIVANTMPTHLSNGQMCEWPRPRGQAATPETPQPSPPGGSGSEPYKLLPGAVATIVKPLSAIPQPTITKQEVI
E coli growth – blocks Escherichia coli growth; 330,000 compounds, 0.21% hits; OD600, 23 h; stronger effect = lower value; AID 1053175; OD600 absorbance (no concentration beside the values);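 active = OD600 absorbance below the run mean of sample wells minus 3.6 SD, in any replicate, cut at about 0.56 in these data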;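 note: stock transfer was 300 nL into about 60 µL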
LANA-H2A inh – blocks KSHV LANA binding to histone H2A/H2B | cell-free LANA-H2A/H2B peptide, fluorescence polarization | inhibition, % (test concentration not listed) | 320,000 compounds, 0.6% hits | Q9QR71; in the data active = inhibition mostly above about 10%, no sharp cut-off; inactive = mostly below about 6.7%;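 note: stock transfer was 7.5 nL into about 10 µL; 0% = median of vehicle wells and 100% = median of positive control wells; one replicate is shown; the record names a cut of 25% in any replicate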
ALR inh – human ALR oxidase inhibition via reduced H2O2. inhibition, % (test concentration not listed). purified ALR, DTT oxidation, H2O2 HRP-luminol luminescence. 290,000 compounds, 3.8% hits. AID 485317. P55789;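 active = mean and each replicate at 75% or more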;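 note: stock transfer was 7.5 nL into about 7.5 µL; 0% = neutral wells and 100% = wells with inactivated enzyme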
FGF22 binding – FGF22 (human) thermal shift binding | Q9HCT0 | recombinant FGF22 thermal shift, SYPRO orange fluorescence; percent of sucrose octasulfate shift, DMSO zero | calls only at 9.99 µM | 340,000 compounds, 1.5% hits | AID 651658;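 active = melting point raised past a set limit in the mean and every replicate; three in four hits are not shown here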
Target sequence (Q9HCT0 whole entry, looked up): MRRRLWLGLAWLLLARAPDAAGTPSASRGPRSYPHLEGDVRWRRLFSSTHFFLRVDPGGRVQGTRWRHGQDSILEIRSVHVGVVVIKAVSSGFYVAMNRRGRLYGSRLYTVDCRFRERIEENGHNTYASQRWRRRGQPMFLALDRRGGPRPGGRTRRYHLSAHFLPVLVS
UCH37 inh – blocks the human deubiquitinase UCH37 | Q9Y5K5 | purified proteasome/UCH37, Ub-AMC cleavage fluorescence | inhibition, % (test concentration not listed) | 330,000 compounds, 0.33% hits;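 active = mean of two replicates above 20%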;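 note: 0% = compound-free wells with enzyme and 100% = wells lacking proteasome; stock transfer was 100 nL into about 20 µL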
Target sequence (Q9Y5K5 whole entry, looked up): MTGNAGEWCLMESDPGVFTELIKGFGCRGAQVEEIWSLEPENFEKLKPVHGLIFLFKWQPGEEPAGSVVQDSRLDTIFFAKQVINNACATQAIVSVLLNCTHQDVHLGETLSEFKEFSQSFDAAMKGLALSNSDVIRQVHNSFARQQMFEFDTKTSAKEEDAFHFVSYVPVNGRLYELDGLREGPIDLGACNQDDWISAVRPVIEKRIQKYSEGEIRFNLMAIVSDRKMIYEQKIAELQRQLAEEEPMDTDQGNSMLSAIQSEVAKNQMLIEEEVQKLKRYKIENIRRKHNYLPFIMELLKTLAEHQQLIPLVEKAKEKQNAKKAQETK
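Assay system: Proteasome-bound UCH37. Buffer or medium: pH 7.4 Tris-HCl (50 mM) with ovalbumin, ATP-MgCl2, DTT. Incubation: 30 min preincubation with enzyme, 25 min cleavage at room temperature. Measured by: fluorescence, ex 355 nm, em 460 nm. Read-out basis: percent inhibition. Control set: wells without proteasome as full block, compound-free enzyme plus substrate as uninhibited.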
B2AR ag – human beta-2 adrenergic receptor agonism by FAP; P07550; Am2.2-beta2AR cells, FAP receptor internalization, flow cytometry; reference of the scale not given here; response, % (test concentration not listed); 340,000 compounds, 0.43% hits;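 active = response above a set limit, near 3 SD of response in nonfluorescent compounds, cut at about 42% in these data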;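 note: stock transfer was 100 nL into about 11 µL; a reference agonist was the positive control; negative values mostly stem from fluorescent compounds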
The depositor's hits bear a star; i = inactive; / = no result given. A portion of the library (hit frequency here may not be typical).

SMILES	HNF4A DNA FP	E coli growth	LANA-H2A inh	ALR inh	FGF22 binding	UCH37 inh	B2AR ag
Cc1ccc(C(C(=O)NC2CCCCC2)N(CC2CCCO2)C(=O)CNC(=O)c2cccs2)cc1 (stereo unspecified)	2.9	0.7	-0.6	-5	/	5.2	-30
c1cncc(-c2nc(NCc3ccc4c(c3)OCO4)c3ccccc3n2)c1	-4.7	/	-1.6	-5	i	/	13
CC(=O)N1CCC(=NNS(=O)(=O)c2cccc([N+](=O)[O-])c2)CC1	2.0	0.67	/	/	/	3.5	-3
CCCCOCCCNC(=O)c1ccc(OC)cc1	1.6	0.76	0.5	-6	/	0.6	5
COc1ccc(NC(C)=O)cc1S(=O)(=O)N1CCc2ccccc21	3.6	0.66	1.6	-2	i	0.1	0
O=c1[nH]nc(-c2ccc(F)cc2)cc1Cc1ccccn1	1.3	0.68	-0.9	-3	i	1.9	8
O=C(CC1CCS(=O)(=O)C1)Nc1ccc[nH]c1=O (stereo unspecified)	-4.4	0.75	-2.6	-25	/	7.0	4
CCOC(=O)C1(CCOc2ccccc2)CCN(Cc2cccs2)CC1	2.6	0.69	-2.8	-2	i	2.8	6
Cc1ccc(N=Cc2c(O)c3ccccc3n(C)c2=O)cc1	-3.4	0.69	0.0	2	i	-53	-3
Cc1c(C(=O)Nc2ccc3oc(-c4cccnc4)nc3c2)oc2ccccc12	3.2	0.76	1.1	-4	/	-211	23
Cc1cc(C)n(-c2cc(Cl)ccc2[N+](=O)[O-])n1	1.0	0.69	-0.8	-10	i	-1.3	-5
CCCCCCOc1ccc(OC(=O)c2ccncc2)cc1	1.1	0.76	-7.2	1	/	1.5	4
O=C(O)c1ccccc1NCN1C(=O)C2CC=C(Cl)CC2C1=O (stereo unspecified)	2.4	0.7	-0.1	/	/	-40	-5
Nc1ccc(N2CCN(CCCCN3C(=O)C4CCCN4C3=O)CC2)cc1 (stereo unspecified)	8.6	0.69	-0.5	99*	i	5.2	4
CCOC(=O)C(Sc1n[nH]c(N)n1)c1ccccc1 (stereo unspecified)	-3.4	0.77	-3.1	/	/	2.8	2
CCN(CC(=O)Nc1ccc(NC(C)=O)cc1)C(=O)c1n[nH]c(=O)c2ccccc12	0.9	0.65	-2.5	/	i	0.5	0
COCC1CCCCN1C(=O)c1cccc(OC2CCN(S(C)(=O)=O)CC2)c1 (stereo unspecified)	2.6	/	/	-24	i	/	-1
Oc1ccccc1/C=N/Nc1cccc2cccnc12	2.4	/	-2.2	/	/	/	-1
CCC(C)NC(=O)CS(=O)Cc1nc(-c2cccc(C)c2)oc1C (stereo unspecified)	-5.2	0.72	0.2	98*	i	-0.8	2
CCCc1cc2c(=O)c(-c3ccc4c(c3)OCCO4)coc2cc1OC(=O)c1ccco1	2.4	0.66	2.3	-12	/	3.5	3
O=C(NC1CCCCC1)c1ccc(-c2cccc([N+](=O)[O-])c2)o1	-4.2	0.7	0.3	94*	i	3.4	6
CCN1C(=NCCCOC(C)C)N[C@@H](c2ccccc2)[C@H](C(=O)OC)[C@H]1C	23	/	-4.6	0	i	2.0	-1
O=C(NC1CCCCCC1)C(=S)N1CCCC1	0.8	0.69	0.1	-1	i	-1.6	2
CC1(CO)COC2(OC1)C(=O)Nc1ccccc12 (stereo unspecified)	-0.4	0.65	/	/	i	2.9	4
Cc1noc(NS(=O)(=O)c2ccc(NC(=O)c3ccc(N4C(=O)c5ccccc5C4=O)cc3)cc2)c1C	-3.8	0.69	-2.7	-1	i	2.9	2
(continued)
SMILES	HNF4A DNA FP	E coli growth	LANA-H2A inh	ALR inh	FGF22 binding	UCH37 inh	B2AR ag
Cc1noc(C)c1C(=O)OCC(=O)Nc1ccc(S(N)(=O)=O)cc1	1.1	0.7	-3.8	0	i	3.0	2
O=C(NCCO)c1cc([N+](=O)[O-])cc2c1C=Cc1ccccc1O2	0.3	0.69	-2.3	-7	i	6.2	1
CC(=O)NS(=O)(=O)c1ccc(NC(=O)/C=C/c2ccco2)cc1	-3.5	0.69	0.3	7	i	2.4	11
O=C(CSCc1ccccc1)Nc1ccc(S(=O)(=O)Nc2ncccn2)cc1	-2.0	0.63	8.4	98*	i	1.2	2
c1ccc(CN2CCOCCOCCOCC2)cc1	0.9	0.66	-2.3	-1	i	2.0	-6
O=C1c2ccccc2C(=O)C1c1ccc(Cl)cc1	1.9	0.68	3.2	-6	i	5.7	2
Nc1nnc(-c2ccccc2Cl)s1	-0.7	0.72	1.2	-8	/	-2.4	3
Cc1cc(C)nc(N2CCC(C(=O)NCc3ccco3)CC2)n1	0.3	0.72	1.4	-14	/	-3.4	0
O=C(NCCCN1CCOCC1)C(=O)NCc1ccccc1	-1.1	0.66	-3.4	1	i	0.1	-7
CC(C)c1nn2c(=O)cc(O)nc2s1	-3.3	0.63	4.4	-1	i	0.5	-5
CCNC(=O)c1cccc(NC(=O)C2CC(=O)N(CCc3ccccc3)C2)c1 (stereo unspecified)	-0.4	0.71	76*	0	i	1.7	-1
Cc1ccc(NC(=O)NNC(=O)Cn2nc(-c3ccccc3)c(-c3ccccc3)c(C#N)c2=O)cc1	0.6	/	-1.0	-1	/	/	6
CCN(c1ccccc1)S(=O)(=O)c1cccc(C(=O)NCC(c2cccs2)N2CCOCC2)c1 (stereo unspecified)	0.4	0.61	0.1	/	i	1.8	-8
Cc1ccc(S(=O)(=O)N2CCN(c3ccccc3)CC2)cc1	0.2	0.66	-2.7	-10	i	1.9	4
CCn1c(=O)cc(SCC(=O)Nc2ccc(C)cn2)c2ccccc21	-2.0	0.71	3.8	-1	i	3.3	-1
Cc1ccsc1C(=O)NCC(=O)OCc1ccccc1	-0.8	0.7	0.4	-1	i	1.1	0
Cc1ccc2c(n1)sc1c(-c3ccccc3)c(C#N)c(N)nc12	-0.7	0.7	-1.2	-3	/	-100	-6
COC(=O)c1cc(NC(=O)CN2C(=O)C(=O)N(C3CCCC3)C2=O)cc(C(=O)OC)c1	4.0	0.69	2.0	-6	i	-4.3	2
CN(CCC#N)C(=O)COC(=O)c1cccnc1Nc1ccccc1F	0.2	0.71	-8.8	-1	i	3.7	4
CC1(C(=O)NCc2ccccn2)C=CCN1C(=O)c1ccccc1 (stereo unspecified)	1.5	0.64	-4.7	-7	i	5.3	0
CCc1cc(C(c2ccc(OC)c(OC)c2)N2CCOCC2)c(NC(=O)c2ccccc2)s1 (stereo unspecified)	4.6	0.67	2.4	5	/	-4.0	11
CC(/C=C/c1ccccc1)=N\NC(N)=S	2.1	/	4.6	9	/	/	-6
COC(=O)COC(=O)c1ccc(O)cc1	-0.3	0.7	2.6	-2	/	0.8	-3
COc1ccc2c(c1)c(=O)oc1c(C)c(OC(C)C(=O)N[C@@H](Cc3c[nH]c4ccc(O)cc34)C(=O)O)ccc12 (stereo partly specified)	-7.4	0.73	-4.2	17	/	-42	2
COc1cccc(-c2nn(-c3ccc(C)cc3)cc2C(=O)NCC(c2cccs2)N2CCOCC2)c1 (stereo unspecified)	5.1	0.7	0.4	-6	i	2.3	3
(further entries)
SMILES	HNF4A DNA FP	E coli growth	LANA-H2A inh	ALR inh	FGF22 binding	UCH37 inh	B2AR ag
O=C(O)CN1C(=O)Nc2ccc(Br)cc2C1c1ccccc1 (stereo unspecified)	-2.4	0.77	-0.9	-10	/	0.2	3
COc1ccc(Nc2c(C)cccc2C)cc1	0.3	0.7	-1.4	/	/	2.7	1
CN1C(=O)c2ccc(C(=O)NCc3ccc4c(c3)OCO4)cc2C1=O	-0.6	0.68	-0.7	-2	i	5.3	0
COc1ccc(C(=O)Nc2ccc3[nH]c(-c4cccc(OC)c4)cc(=O)c3c2)cc1	1.7	0.75	0.0	-2	i	2.7	-1
O=C(COc1ccccc1Br)N1CCNC1=O	-1.6	0.7	7.3	-4	i	1.4	1
O=C(Nc1ccc(NC(=O)c2ccccc2Br)cc1)c1ccccc1	-1.1	0.73	-2.5	10	i	0.5	1
Cc1cc(C)nc(N2N=C(c3ccccc3)CC2=O)n1	-3.9	0.71	0.6	9	i	0.9	8
Fc1ccc(OCc2nn3cnnc3s2)cc1	0.9	0.7	0.3	-5	/	1.9	3
CCn1cc(C(=O)NCc2ccccc2OC)c(=O)c2cc(S(=O)(=O)N(C)C)ccc21	5.4	0.74	1.0	27	/	-2.8	-2
CN(C(=O)COC(=O)CNC(=O)c1cccs1)c1c(N)n(Cc2ccccc2)c(=O)[nH]c1=O	2.6	0.71	-2.6	2	i	3.4	-4
CC1=C(CC(=O)O)c2cc(F)ccc2C1=Cc1ccc(S(C)(=O)=O)cc1	1.6	0.68	-1.2	-26	i	2.7	3
C=CCn1c(C(C)NC(=O)COC)nc2ccccc21 (stereo unspecified)	2.5	0.7	5.4	1	i	3.8	0
C=Cc1ccc(COC(=O)c2cn(CC)c3nc(C)ccc3c2=O)cc1	2.3	0.65	-1.2	-13	i	0.9	8
CC(C)Oc1ccc(C(=O)NC2CCCCC2)cc1	-1.9	0.77	7.8	-2	/	0.9	3
CN(Cc1ccccc1)C(=O)Nc1ccccc1	-3.3	0.59	1.6	-7	/	1.8	-2
Cc1cc(S(=O)(=O)NCCCN2CCOCC2)ccc1F	-1.3	0.65	6.0	-6	/	4.8	-9
CCOCCCNC(=O)CN1CCN(S(=O)(=O)c2ccc3c(c2)CCC3)CC1	-0.5	0.69	-5.0	1	i	-4.3	1
CCC(C)[C@H]1CNC(=O)C(=O)N1CCCc1cc(OC)c(OC)c(OC)c1 (stereo partly specified)	0.1	/	-3.8	-4	i	-1.0	-12
Cc1ccc(C(=O)NCC(=O)OCCCn2c(=O)[nH]c3ccccc32)cc1	1.4	0.68	-0.9	7	i	1.1	-2
COc1ccc(-c2nnc(NC(=O)c3ccc(S(=O)(=O)N4CCc5ccccc5C4)cc3)o2)cc1	0.2	0.73	-0.1	-12	/	-3.7	17
CCOC(=O)C1CCCN(C(=O)Nc2cccc(Cl)c2)C1 (stereo unspecified)	3.0	0.67	0.6	-2	/	2.2	-3
NNC(=S)Nc1c(F)cc(F)cc1Br	3.5	0.71	-0.9	41	i	-1.3	-2
N#Cc1ncc(-c2ccc3c(c2)OCCOCCOCCOCCO3)nc1C#N	0.8	0.66	0.5	0	/	8.0	-1
CC(=O)c1ccc(OCC(C)C)c(Cc2c(O)nc(N)[nH]c2=O)c1	0.6	0.66	-1.8	17	i	-0.3	-19
CCOC(=O)c1cnc2sccn2c1=O	-2.0	0.69	-3.3	-7	/	-78	-2
Following part
SMILES	HNF4A DNA FP	E coli growth	LANA-H2A inh	ALR inh	FGF22 binding	UCH37 inh	B2AR ag
COc1ccc(C2C(C#N)=C(N)OC3=C2C(=O)CC(C)(C)C3)cc1Cn1nc(C)c([N+](=O)[O-])c1C (stereo unspecified)	0.6	0.68	6.4	24	i	2.3	5
Cc1ccc(C)c(OCc2cc(C(=O)N(C)Cc3nccn3C)no2)c1	-0.6	/	-1.0	-1	i	/	-7
COc1ccc(CN(C)C(=O)Cn2cc(C)c(=O)[nH]c2=O)cc1OC	-1.1	/	/	/	i	/	-1
COc1ccccc1NC(=O)c1sc(Cl)nc1C	-1.0	0.68	7.7	23	i	4.7	-3
Cc1ccc(C)c(N2CCN(S(=O)(=O)c3cc4c(cc3Cl)NC(=O)CO4)CC2)c1	0.2	0.74	2.4	-6	i	0.1	21
COCCCNc1nc2c(c(=O)n(Cc3ccc(F)cc3)c(=O)n2C)n1C	1.3	0.68	-2.7	1	i	3.7	-5
